Assay outcomes as filed in PubChem BioAssay.
GLA inh pH 4.5: qHTS Assay for Inhibitors of Human alpha-Galactosidase at pH 4.5. Alpha-galactosidase A (Homo sapiens), P06280. purified enzyme, 4-MU-alpha-Gal fluorescence, pH 4.5. activity change, negative = inhibition, % at 105 µM. 230,000 tested, under 10 active. AID 1467, 2008; inconclusive = small, poorly fitted or top-dose-only inhibition, or a rising curve; inactive = flat fitted curve, though single readings scatter; no compound was filed as active;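 also: 0% = full activity with enzyme and -100% = basal without enzyme; dose as in the result columns while the protocol names 77 µM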
miR-21 reporter: qHTS Assay for Modulators of miRNAs and/orActivators of miR-21; HeLa miR-21 FLuc reporter, luciferase, 48 h; Potency, µM (highest dose often 38.3 µM), without a hit: top-dose reporter change, positive = more light; 340,000 tested, under 10 active; AID 2288, 2010; active = well fitted rising curve with a large enough effect; inconclusive = small, poorly fitted or top-dose-only effect; inactive = no such curve, though single readings can be large or run the other way;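 also: % of control where 0% means no effect; miR-21 action dims this reporter so a rising signal means less miR-21 action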
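Luminescence from a firefly luciferase reporter carrying a miR-21 binding site downstream, stably expressed under a CMV promoter in HeLa cells that make miR-21 endogenously, reports miRNA modulation after 48 h compound exposure up to approximately 40uM final.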
Rango-impB inh: qHTS Assay for Inhibitors of Rango (Ran-regulated importin-beta cargo) - Importin beta complex formation. Potency, µM (titrated, usually from 92.2 µM), for inactives: at the top dose inhibition of complex formation. Rango CFP/YFP FRET sensor + importin beta, 45 min. 0.031% of 340,000 active. Importin subunit beta-1 (Homo sapiens), Q14974; active = rising FRET ratio curve, often small or poorly fitted; inconclusive = mostly compound fluorescence or quenching in the first reads; inactive = flat curves in all reads;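 also: potency is read from the fitted curve at half-maximal effect; 0% = DMSO wells and 100% = buffer wells lacking importin beta; nearly all actives have a fitted effect of over 15% in size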
Target sequence (Q14974 whole entry, looked up): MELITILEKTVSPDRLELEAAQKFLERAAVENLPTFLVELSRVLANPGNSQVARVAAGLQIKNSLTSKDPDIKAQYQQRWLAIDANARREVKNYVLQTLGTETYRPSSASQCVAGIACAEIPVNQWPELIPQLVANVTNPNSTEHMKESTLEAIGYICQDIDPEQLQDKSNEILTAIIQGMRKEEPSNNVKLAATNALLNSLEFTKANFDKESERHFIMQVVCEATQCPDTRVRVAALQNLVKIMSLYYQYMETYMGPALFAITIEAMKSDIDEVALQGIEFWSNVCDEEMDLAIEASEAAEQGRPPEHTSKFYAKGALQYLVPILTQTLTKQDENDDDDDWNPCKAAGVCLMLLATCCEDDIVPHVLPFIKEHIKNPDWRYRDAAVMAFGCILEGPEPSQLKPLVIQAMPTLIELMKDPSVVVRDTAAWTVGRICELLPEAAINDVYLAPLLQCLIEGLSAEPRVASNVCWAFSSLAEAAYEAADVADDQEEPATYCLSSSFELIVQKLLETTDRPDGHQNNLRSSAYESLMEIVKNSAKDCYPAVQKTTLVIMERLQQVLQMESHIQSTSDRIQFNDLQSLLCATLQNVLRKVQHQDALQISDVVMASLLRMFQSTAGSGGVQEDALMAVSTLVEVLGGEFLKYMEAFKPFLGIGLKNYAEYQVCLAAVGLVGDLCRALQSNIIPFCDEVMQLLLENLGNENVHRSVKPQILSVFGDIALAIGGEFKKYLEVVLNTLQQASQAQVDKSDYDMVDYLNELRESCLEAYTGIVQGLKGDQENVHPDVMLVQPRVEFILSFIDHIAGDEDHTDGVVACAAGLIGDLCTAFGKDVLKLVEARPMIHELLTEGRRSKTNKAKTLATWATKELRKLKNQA
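FRET biosensor Rango (snurportin 1 IBB between N-terminal EYFP and C-terminal Cerulean), 50 nM in PBS/1 mM DTT/0.02% Tween-20/0.1% BSA, preincubated 5 min RT with compound; 0.125 microM importin beta added, 45 min RT, CFP/YFP FRET ratio read.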
Rango dissoc inh: qHTS Assay for Inhibitors of RanGTP induced Rango (Ran-regulated importin-beta cargo) - Importin beta complex dissociation | Snurportin-1 (Homo sapiens) + GTP-binding nuclear protein Ran (Homo sapiens) + Importin … | Biochemical FRET Rango-importin beta, RanGTP-induced dissociation | Potency, µM (top dose mostly 46.1 µM), for the others: top-dose activity change, negative = inhibition | 0.071% of 340,000 active; active means falling FRET ratio curve, often poorly fitted, with flat reads before Ran was added; inconclusive means other falling curves, or compound fluorescence or quenching; inactive means flat or rising ratio curve;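 also: potency is read from the fitted curve at half-maximal effect; % of control where 0% means no effect; nearly all actives have a fitted effect of over 45% in size; -100% = wells without RanGTP and RCC1; the record marks most hits as doubtful in a second field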
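Compounds sat 5 min at room temperature with 0.1 uM Rango biosensor plus 0.25 uM importin beta, then FRET pre-read. RanGTP-RCC1 (0.6 uM Ran, 2mM GTP, 0.2 uM RCC1) added for 45 min, and the CFP/YFP post-read measured blocked complex dissociation.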
Numbers without * were called inactive; u = inconclusive; x = no result given; & = joins results of further samples; [ ] = another dose, or the depositor's remark.

SMILES	GLA inh pH 4.5	miR-21 reporter	Rango-impB inh	Rango dissoc inh
Fc1ccc(C(c2nnnn2C2CCCC2)N2CCc3ccccc32)cc1 (configuration not stated)	4	1%	-3.7%	-10%
Nc1c(C(=O)NCC2CCCO2)sc2nc3c(c(-c4ccco4)c12)CC/C3=C\c1ccco1 (configuration not stated)	-10	-4%	u	-25%
O=C(Nc1cc(C(F)(F)F)ccc1N1CCOCC1)c1ccco1	-12	0%	1.9%	-6%
CCOCCCn1c(=S)[nH]c2cc(C(=O)NC3CCCC(C)C3C)ccc2c1=O (configuration not stated)	x	-2%	-3.5%	8%
CCNc1nc(NC(N)=S)nc(NC(C)(C)C)n1	-29	-22%	-1.0%	0%
C/C(=N/NC(=O)c1cc(-c2ccc(Cl)s2)[nH]n1)c1ccco1	-5	10%	0.3%	1%
O=C(Nc1nnc(S(=O)(=O)N2CCN(c3ccc(F)cc3)CC2)s1)c1ccccc1	x	0%	0.0%	-19%
CCCn1nnc(NC(=O)c2cccnc2Cl)n1	2	-6%	2.4%	15%
Cc1ccccc1NC(=O)NCCCN1CCCC1=O	x	0%	-1.8%	19%
CC(C)CNC(=S)NNC(=O)c1ccc(OC(F)F)cc1	-7	-7%	0.0%	-21%
O=C(NCCCN1CCOCC1)c1cccs1	12	-3%	0.4%	-18%
COCCCN(C(=O)c1cc(C)oc1C)c1c(N)n(CC(C)C)c(=O)[nH]c1=O	x	x	-1.3%	9%
CCc1ccc(NCc2nc(-c3ccccc3)no2)cc1	-9	-46%	0.1%	20%
O=c1ccccn1CCOc1ccccc1Cl	8	-32%	0.2%	u
Cc1cc(NS(=O)(=O)c2ccc(NC(=O)N[C@H](C(=O)O)C(C)C)cc2)no1	x	3%	3.2%	12%

Full records, looked up by structure. Order of values: GLA inh pH 4.5	miR-21 reporter	Rango-impB inh	Rango dissoc inh
CCOCCCn1c(=S)[nH]c2cc(C(=O)NC3CCCC(C)C3C)ccc2c1=O (configuration not stated) is listed as x	-2%	-3.5%	8%
CCc1ccc(NCc2nc(-c3ccccc3)no2)cc1 is listed as -9	-46%	0.1%	20%
C/C(=N/NC(=O)c1cc(-c2ccc(Cl)s2)[nH]n1)c1ccco1 is listed as -5	10%	0.3%	1%
Fc1ccc(C(c2nnnn2C2CCCC2)N2CCc3ccccc32)cc1 (configuration not stated) is listed as 4	1%	-3.7%	-10%
CCNc1nc(NC(N)=S)nc(NC(C)(C)C)n1 is listed as -29	-22%	-1.0%	0%

More structures follow:
SMILES	GLA inh pH 4.5	miR-21 reporter	Rango-impB inh	Rango dissoc inh
COc1ccc2c(c1)C(=O)N(c1ccccc1OC)C(=O)C2	5	-4%	-0.8%	-14%
CCc1ncc(C)[nH]1	x	2%	-5.6%	2%
COC(=O)COc1ccc(S(=O)(=O)Nc2ccc(NC(C)=O)cc2)cc1	5	-1%	3.6%	20%
CC(C)N(CCc1ccncc1)C(=S)Nc1cccc(Cl)c1	8[21.1 µM]	10%	0.0%	6%
C=CCCN(C1CCCC1)S(=O)(=O)c1ccccc1Br	4	12%	1.5%	2%
NC(=O)C1CCN(C(=O)C2(NC(=O)Nc3cccc(F)c3)CCCCC2)CC1	x	-4%	4.2%	-10%
CN1C(=O)[C@H]2[C@@H](/C=C/c3ccccc3)N3C(=O)CN(CC4CC4)C(=O)[C@@]3(C)[C@H]2C1=O	x	1%	0.2%	-13%
Clc1ccccc1Cn1nnc2c(N3CCOCC3)nc(C3CC3)nc21	5	-2%	3.6%	21%
Cc1cc(C)n(C(=O)COc2ccccc2C)n1	4	-4%	0.0%	7%
COc1ccc(C=O)cc1Cn1c(=O)n(CCC(=O)NCc2ccco2)c(=O)c2sccc21	2	-2%	-0.8%	6%
O=C(Nc1cccc([N+](=O)[O-])c1)c1ccccc1	-1	-14%	-1.1%	2%
Cc1cc(-c2nnc(SCC(=O)Nc3nc(-c4ccc(Cl)cc4)cs3)o2)no1	2	-7%	-0.7%	-5%
COc1ccc(N2CCN(c3ccc([N+](=O)[O-])nc3)CC2)cc1	-15	-14%	0.7%	1%
CCCNC(=O)CN(C)S(=O)(=O)c1ccc(F)cc1	-2	1%	-3.2%	17%
Cn1c(NC(=O)c2ccccc2Br)cc(=O)n(C)c1=O	2	-9%	1.4%	-9%
CC(=O)N1c2ccc([N+](=O)[O-])cc2NC(=O)CC1C (configuration not stated)	-2	1%	-3.1%	7%
CCOc1ccc(N2CC(C(=O)NCCCc3ccccc3)CC2=O)cc1 (configuration not stated)	x	x	1.3%	0%
O=C(N=C1SC2CS(=O)(=O)CC2N1Cc1ccc(F)cc1)C1CC1 (configuration not stated)	x	-2%	-5.9%	-7%
C/C(=N\Nc1ccc(Cl)nn1)c1ccccc1O	x	x	0.4%	-1%
O=C(c1ccccc1)N1CCCCC1	x	x	3.1%	12%
COc1cccc(C(=O)Cn2c(N3CCCCC3)nc3c2c(=O)n(C)c(=O)n3C)c1	5	-4%	1.4%	0%
COc1ccc(C2/C(=C(/O)c3ccccc3)C(=O)C(=O)N2C)cc1 (configuration not stated)	-1	-9%	-2.8%	-10%
CC(=O)Nc1ccc(S(=O)(=O)Nc2c(C)n(C)n(-c3ccccc3)c2=O)cc1	1	0%	2.3%	0%
Cc1ccc(O)c(CN(C)Cc2cc(C)ccc2O)c1	x	x	-0.9%	u
COc1ccc(C2NC(C(=O)O)Cc3c2[nH]c2ccccc32)cc1OC (configuration not stated)	-1	-2%	-1.8%	13%
CC(=O)C1C(=O)CC(C)(O)C(C(C)=O)C1c1ccccc1 (configuration not stated)	7	1%	0.2%	11%
O=C(c1cccc(Cl)c1)N1CCC(=O)N(C(CO)Cc2ccccc2)CC1 (configuration not stated)	x	x	-0.7%	-5%
COc1ccccc1N1CCN(C(=S)Nc2cccc(C)c2)CC1	2	7%	-3.6%	6%
COc1ccc(-n2c(SCC(=O)Nc3nccs3)nc3c(c2=O)SCC3)cc1	-10	0%	-2.1%	9%
Clc1ccc(-c2nnc3n2CCCC3)cc1Cl	2	-2%	4.5%	11%
COc1ccccc1/C=C1\SC(=S)N(CCC(=O)Nc2ccc(C(=O)O)c(O)c2)C1=O	x	-7%	0.6%	7%
COc1ccc(N2C(=O)CCC(C(=O)N(C)C3CCCCC3)C2c2ccc(OC)c(OC)c2)cc1 (configuration not stated)	8	-9%	-0.7%	3%
Cc1occc1C(=O)NC1CCCCCCC1	0	-50%	-1.7%	-11%
CCOC(=O)C1=C(COC(=O)Cc2c(F)cccc2Cl)NC(=O)NC1C (configuration not stated)	x	x	0.3%	14%
CCOC(=O)C(=O)NNc1ccc(F)cc1	-4	13%	-1.0%	-10%
COc1cc(CNc2ccc(S(N)(=O)=O)cc2)ccc1OCC(=O)NC1CCCCC1	7	3%	1.5%	0%
COc1ccc(-c2ccnc(-c3ccncc3)n2)cc1	7	11%	2.0%	2%
COc1ccc(OC)c(NC(=O)Nc2ccc(O)c3ccccc23)c1	x	x	-4.9%	1%
CC1CCCCC1NC(=O)CN(C)S(=O)(=O)c1cccc2cccnc12 (configuration not stated)	1	-1%	-3.9%	-9%
Cc1ccc(C(=O)NC(=S)N2CCN(C)CC2)cc1Br	x	-15%	3.2%	-4%
CC(C)Cc1ccc(S(=O)(=O)Nc2ccc3[nH]c(=O)[nH]c3c2)cc1	x	8%&14%	-2.8%	-9%
COC(=O)c1ccc(CNC(=O)COC(=O)c2cc(Cl)nc(Cl)c2)cc1	9	7%	-0.1%	22%
Nc1ccc(S(=O)C(F)(F)F)cc1 (configuration not stated)	5	-1%	-3.4%	-5%
O=S(=O)(c1cccc(C(F)(F)F)c1)N1CCC(c2cc(-c3cccc4ccccc34)n[nH]2)CC1	-1	16%	1.6%	0%
CCOc1ccc(S(=O)(=O)N2CCN(c3ncccn3)CC2)cc1	x	-4%	0.8%	-8%
O=c1[nH]nc(SC2CCCCC2)c(=O)[nH]1	x	x	-0.5%	9%
Fc1ccccc1C1CCN(Cc2nc(COc3ccccc3)no2)C1 (configuration not stated)	-3	-2%	-0.8%	24%
Cc1cc(OCCn2ccnc2)ccc1C(C)C	27	-5%	-3.7%	7%
COc1cccc(OCCn2cccc2/C=C2/C(=N)N3OC(C)=CC3=NC2=O)c1	-13	-7%	-0.2%	6%
NC(=O)c1ccccc1N/C=C/C(=O)c1ccc(F)cc1	-9	-34%	u	u
CN(CC(=O)Nc1cccc(F)c1)C(=O)CN1C(=O)C2CCCCC2C1=O (configuration not stated)	x	x	-2.5%	7%
CCOC(=O)C(=NC1CCCCC1)NNc1cccc(C(F)(F)F)c1	-6	-4%	u	-17%
N#Cc1cc2c(nc1SCC(=O)O)CCCC2	2	3%	-0.7%	-4%
COc1cccc(-n2nnnc2SCC(=O)Nc2nc3c(s2)CCCC3)c1	-3	-22%	0.1%	-18%
Cc1ccc(S(=O)(=O)NCC(=O)NNC(=O)c2ccccc2Cl)cc1C	x	x	0.0%	-10%
O=C(Cn1nnc(-c2ccccc2)n1)Nc1cccc(S(=O)(=O)N2CCCC2)c1	x	x	-1.8%	-9%
O=C(Nc1cccn2ncnc12)c1cccc(C(F)(F)F)c1	0	-44%	2.6%	0%
COc1ccc(/C=C2/CCCc3ccccc3C2=O)cc1	x	x	-0.3%	-9%
Cc1nn2c(c1-c1ccccc1)N=C(c1ccco1)CC2c1ccccc1 (configuration not stated)	2	-22%	u	u
COc1ccc(-c2cnc(N)n2C)cc1	-6	-2%	u	-3%

New compounds follow.
SMILES	GLA inh pH 4.5	miR-21 reporter	Rango-impB inh	Rango dissoc inh
CCOC(=O)c1cnc(SCC(=O)Nc2ccc(N3CCOCC3)c(Cl)c2)nc1N	-8	0%	-4.6%	-15%
CC1CCCCC1NC(=O)CSC1=Nc2ccccc2C2CC=NN12 (configuration not stated)	x	x	5.9%	11%
Cc1ccc(CSc2nsc(C)c2C#N)cc1	x	-40%	-1.1%	-10%
Cn1cc([N+](=O)[O-])c(C(=O)NNC(=O)c2ccc([N+](=O)[O-])cc2)n1	-12	1%	0.9%	13%
COc1ccc(C)cc1-n1c(-c2ccncc2)n[nH]c1=S	-4	-3%	0.1%	-3%
CC(C)(C)n1nnnc1C(c1ccncc1)N1CCCCCC1 (configuration not stated)	3	-6%	-1.6%	-7%
COc1ccc(CCn2c(=O)[nH]c3cc(C(=O)N4CCN(c5ccccc5)CC4)ccc3c2=O)cc1OC	7[21.1 µM]	u	-0.2%	-21%
Cc1c(C(=O)NC2CCCCC2)sc2ncnc(N3CCN(c4ccccc4)CC3)c12	x	0%	-1.4%	8%
Cc1nnc(-c2cnn(-c3ccccc3)c2N)n1Cc1ccc(F)cc1	-12	-4%	4.8%	-2%
Cn1nnnc1SCc1nc2ccccc2s1	-3	-34%	-0.9%	0%
CCOc1ccc(S(=O)(=O)Nc2ccccc2SC)cc1	-5	5%	-2.0%	6%
COc1ccc(CN2CCN(Cc3ccc(C(F)(F)F)cc3)CC2)cc1	x	23%	2.8%	7%
O=C(CC1S/C(=N/N=C/c2ccco2)NC1=O)Nc1cccc(Cl)c1Cl (configuration not stated)	0	-5%	2.5%	-18%
CCS(=O)(=O)Nc1cccc(C2=NN(S(C)(=O)=O)C(c3cccs3)C2)c1 (configuration not stated)	x	-4%	-5.9%	-17%
Cc1ccc(NC(=O)C2C(c3ccccc3)C=CC(c3ccccc3)C2C(=O)O)cc1 (configuration not stated)	3	0%	0.0%	0%
CS(=O)(=O)N(CC(=O)Nc1ccccc1C(=O)NCCc1ccccc1)c1ccc2c(c1)OCCO2	-5	-20%	-3.7%	34%
O=C(CCSc1ccc(Cl)c(Cl)c1)NC12CC3CC(CC(C3)C1)C2	-3	-35%	-0.4%	19%
C=CCNC(=O)CC(=O)N/N=C/c1cccc(C)c1	-3	0%	-1.9%	-3%

Some of the compounds tested; rates above refer to the full screens.
